nsP2pro primary: blocks chikungunya virus nsP2 protease peptide cleavage; AID 1964107; Potency, µM (titrated, usually from 24.9 µM), for inactives: top-dose activity change, negative = inhibition, hits mostly inhibitors; 1.1% of 31,000 active; FRET peptide cleavage, nsP2pro, fluorescence 1 h; active means well fitted inhibition curve with a large enough effect; inconclusive means small, poorly fitted or top-dose-only effect; inactive means no such curve, though single readings can be large or run the other way; also: nearly all actives have a fitted effect of over 60% in size; a reference inhibitor and vehicle were the controls
Target sequence (Q8JUX6 whole entry, looked up): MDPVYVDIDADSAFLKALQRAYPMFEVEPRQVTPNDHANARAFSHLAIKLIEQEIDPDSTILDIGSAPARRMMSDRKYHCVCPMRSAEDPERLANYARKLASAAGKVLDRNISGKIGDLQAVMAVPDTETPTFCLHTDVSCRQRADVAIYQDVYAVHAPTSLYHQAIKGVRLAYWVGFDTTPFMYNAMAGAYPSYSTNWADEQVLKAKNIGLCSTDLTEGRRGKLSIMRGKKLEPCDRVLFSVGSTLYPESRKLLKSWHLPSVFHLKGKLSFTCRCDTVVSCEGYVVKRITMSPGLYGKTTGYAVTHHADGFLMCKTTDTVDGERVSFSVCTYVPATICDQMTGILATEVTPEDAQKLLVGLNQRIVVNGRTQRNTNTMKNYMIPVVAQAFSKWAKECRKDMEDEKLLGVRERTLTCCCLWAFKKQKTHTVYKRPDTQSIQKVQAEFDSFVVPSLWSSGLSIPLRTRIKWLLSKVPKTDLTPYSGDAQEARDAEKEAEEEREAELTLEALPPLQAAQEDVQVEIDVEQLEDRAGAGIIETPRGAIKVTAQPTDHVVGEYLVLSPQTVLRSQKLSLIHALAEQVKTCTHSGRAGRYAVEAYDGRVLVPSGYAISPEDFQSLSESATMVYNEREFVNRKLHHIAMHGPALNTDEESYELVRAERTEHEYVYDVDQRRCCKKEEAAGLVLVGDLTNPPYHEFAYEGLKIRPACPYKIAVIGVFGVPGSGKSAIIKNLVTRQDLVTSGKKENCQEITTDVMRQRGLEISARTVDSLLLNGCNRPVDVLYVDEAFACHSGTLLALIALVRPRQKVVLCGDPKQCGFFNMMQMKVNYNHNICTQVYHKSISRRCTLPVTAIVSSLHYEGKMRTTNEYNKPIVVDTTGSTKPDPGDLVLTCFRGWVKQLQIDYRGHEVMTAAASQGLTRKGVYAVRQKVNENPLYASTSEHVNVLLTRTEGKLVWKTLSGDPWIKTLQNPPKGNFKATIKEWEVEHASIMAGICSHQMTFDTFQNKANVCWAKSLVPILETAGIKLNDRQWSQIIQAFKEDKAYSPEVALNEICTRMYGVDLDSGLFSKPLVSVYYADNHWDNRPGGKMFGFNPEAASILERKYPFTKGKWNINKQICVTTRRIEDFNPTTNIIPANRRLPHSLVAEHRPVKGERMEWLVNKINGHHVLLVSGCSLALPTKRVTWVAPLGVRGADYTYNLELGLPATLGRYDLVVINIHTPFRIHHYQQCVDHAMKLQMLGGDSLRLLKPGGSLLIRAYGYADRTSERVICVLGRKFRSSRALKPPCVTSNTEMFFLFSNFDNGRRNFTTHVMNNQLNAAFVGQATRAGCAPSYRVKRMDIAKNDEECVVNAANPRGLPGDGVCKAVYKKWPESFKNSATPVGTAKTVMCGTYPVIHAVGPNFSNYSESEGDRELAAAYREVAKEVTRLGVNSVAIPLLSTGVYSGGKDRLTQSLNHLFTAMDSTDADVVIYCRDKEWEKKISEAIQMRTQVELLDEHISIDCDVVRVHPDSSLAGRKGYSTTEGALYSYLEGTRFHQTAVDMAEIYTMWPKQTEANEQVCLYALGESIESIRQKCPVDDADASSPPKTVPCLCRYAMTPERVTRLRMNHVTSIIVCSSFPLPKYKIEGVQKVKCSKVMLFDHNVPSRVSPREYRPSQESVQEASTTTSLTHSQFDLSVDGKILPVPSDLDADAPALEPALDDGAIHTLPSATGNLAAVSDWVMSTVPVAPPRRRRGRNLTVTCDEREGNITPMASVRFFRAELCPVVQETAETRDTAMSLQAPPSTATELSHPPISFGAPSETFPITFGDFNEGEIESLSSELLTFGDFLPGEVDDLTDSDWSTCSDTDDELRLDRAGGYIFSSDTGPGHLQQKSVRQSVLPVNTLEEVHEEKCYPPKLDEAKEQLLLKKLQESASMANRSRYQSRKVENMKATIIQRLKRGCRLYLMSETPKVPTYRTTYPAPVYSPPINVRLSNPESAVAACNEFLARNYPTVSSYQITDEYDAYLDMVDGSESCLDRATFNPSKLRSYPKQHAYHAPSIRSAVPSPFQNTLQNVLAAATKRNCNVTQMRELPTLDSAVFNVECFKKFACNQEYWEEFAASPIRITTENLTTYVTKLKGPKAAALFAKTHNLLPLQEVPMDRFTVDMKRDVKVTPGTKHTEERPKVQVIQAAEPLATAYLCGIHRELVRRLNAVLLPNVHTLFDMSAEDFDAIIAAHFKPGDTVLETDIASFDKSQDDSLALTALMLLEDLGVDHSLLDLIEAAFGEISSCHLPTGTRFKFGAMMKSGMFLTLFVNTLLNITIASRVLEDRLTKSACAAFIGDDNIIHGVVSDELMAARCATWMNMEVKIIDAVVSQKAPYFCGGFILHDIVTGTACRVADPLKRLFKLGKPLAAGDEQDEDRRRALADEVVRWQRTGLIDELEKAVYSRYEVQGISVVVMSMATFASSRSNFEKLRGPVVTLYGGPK
Numbers without * were called inactive; i = inactive; ? = inconclusive; & = joins results of further samples; ! = not confirmed by another sample; [ ] = dose if it differs, or a comment. % is scaled to controls: 0 for no effect and ±100 for the full control effect; potency is read from the fitted curve at half-maximal effect. Not all compounds are listed (hit frequency here may not be typical).

SMILES	nsP2pro primary
COc1ccc(C(=O)OC2=C(C(=O)c3ccccc3)N(C)S(=O)(=O)c3ccccc32)cc1OC	-6%
COc1ccc2[nH]c(-c3ccccc3)c(CCN(C)C)c2c1	-4%
CC(=O)c1cc2c(cc1N/C(=N/S(=O)(=O)c1ccc(Cl)cc1)c1ccc(F)cc1)OCO2	-24%
COc1ccc(NC(=O)c2nc(SCc3ccccc3F)ncc2Cl)cc1	-18%
Cn1cccc1CN1CC[C@@H]2CN(S(C)(=O)=O)[C@@H]2C1	-6%
C=CC(C)(C)C12CC3C(=O)N4C(CC5(C(C)(C)C=C)c6ccccc6NC45)C(=O)N3C1Nc1ccccc12 (stereo not drawn)	5%[10 µM]
CN(C)c1ccc(C(=O)N[C@H]2C[C@@H](c3nc(-c4ccc5ccccc5c4)no3)N(C)C2)cc1	i
O=C(COc1ccccc1)NCC(c1ccc(Cl)cc1)N1CCOCC1 (stereo not drawn)	-22%
O=C(Cc1ccc(Cl)c(Cl)c1)Nc1ccc([S+](=O)([O-])Nc2ccccn2)cc1	-3%
Clc1cccc(-c2ccc(-c3nnc(CCCc4ccc5cccnc5n4)o3)cc2)c1	2%
C[C@]12CC[C@@H]3c4ccc(OC(=O)N(CCCl)CCCl)cc4CC[C@H]3[C@@H]1CC[C@@H]2OP(=O)(O)O	15%&13%
CC(C(=O)O)c1ccc(-c2ccccc2)c(F)c1 (stereo not drawn)	?
COc1ccc(NC(=O)/C=C\C(=O)N(c2ccc(C(C)C)cc2)C(C(=O)NCc2ccco2)c2ccc(C)cc2)cc1 (stereo not drawn)	-18%
COc1cc(NC(=O)CC(C)S(=O)(=O)c2ccc3c(c2)CCN3C(C)=O)cc(OC)c1OC (stereo not drawn)	-16%
C#Cc1cnc2[nH]c(=O)n(C(CC)CC)c2n1	-12%
Cc1ccnc(NC(=S)N2CCC(c3cccc(C(F)(F)F)c3)CC2)c1	2%
CCOc1ccc(C(=O)NCC(c2ccc3c(c2)OCO3)N2CCN(C)CC2)cc1 (stereo not drawn)	-7%
CC1(C)C2CCC1(C)C(OC(=O)C(O)(CC(=O)O)CC(=O)O)C2 (stereo not drawn)	42%
C/C(=N/NC(=O)c1ccncc1)C(=O)O	42%[activator]
COc1cc(OC)cc(C(=O)Nc2ccc(Cl)cc2C(=O)c2ccccc2Cl)c1	-15%
COc1ccc(-n2[nH]c(=O)c3[nH]c4cc(Cl)ccc4c(=O)c3c2=O)c(C)c1	160%[activator]
O=S(=O)(NCC(c1cccs1)S(=O)(=O)c1ccccc1)c1ccc(F)c(C(F)(F)F)c1 (stereo not drawn)	?
Cc1ccc(NC(=O)CSc2nc3c(c(=O)[nH]2)CN(Cc2ccc4c(c2)OCO4)CC3)cc1C	-22%
CC(=O)N1CC[C@]2(O)CCN(C(=O)CCCc3ccc(F)cc3)C[C@@H]2C1	-3%
O=C(CSc1nc(=O)n(Cc2ccco2)c2c1CCC2)Nc1cccc(F)c1	-24%

An excerpt of these results, as labelled records.
Cn1cccc1CN1CC[C@@H]2CN(S(C)(=O)=O)[C@@H]2C1
  nsP2pro primary = -6%

C=CC(C)(C)C12CC3C(=O)N4C(CC5(C(C)(C)C=C)c6ccccc6NC45)C(=O)N3C1Nc1ccccc12 (stereo not drawn)
  nsP2pro primary = 5%[10 µM]

CN(C)c1ccc(C(=O)N[C@H]2C[C@@H](c3nc(-c4ccc5ccccc5c4)no3)N(C)C2)cc1
  nsP2pro primary = i

O=C(COc1ccccc1)NCC(c1ccc(Cl)cc1)N1CCOCC1 (stereo not drawn)
  nsP2pro primary = -22%

Back to the main list; the two compounds before the break are reprinted first.
SMILES	nsP2pro primary
CC(=O)N1CC[C@]2(O)CCN(C(=O)CCCc3ccc(F)cc3)C[C@@H]2C1	-3%
O=C(CSc1nc(=O)n(Cc2ccco2)c2c1CCC2)Nc1cccc(F)c1	-24%
CC1(C)C2CCC(CO[C@@H]3O[C@H](CO[C@@H]4OC[C@](O)(CO)[C@H]4O)[C@@H](O)[C@H](O)[C@H]3O)C1C2 (stereo partly drawn)	-9%[10 µM]
CCc1cc(N2CCOCC(O)(CN3CCCC3)C2)nc(N2CCCC2)n1 (stereo not drawn)	i
CC(C)N1C[C@@H](F)[C@@H](OCc2nc3ccc(F)cc3[nH]2)C1	3%[39.2 µM]
Cc1ccnc(NC(=S)N2CCN(c3ccc(F)cc3)CC2)c1	i
FC(F)(F)c1cccc(-c2nc(NCc3ccc(-c4cccnc4)cc3)c3ccccc3n2)c1	-13%
CCC1CCCCN1CCCNC(=O)c1sc2nc(C)cc(C)c2c1-n1cccc1 (stereo not drawn)	-15%
COc1ccc(C[C@@H](NS(=O)(=O)c2ccc(C(=O)O)cc2)C(=O)O)cc1	i
NC(=O)c1ccc2nc(-c3ccc(Oc4ccc(Cl)cc4)cc3)[nH]c2c1	61%[activator]
CCOC(=O)c1sc(NC(=O)c2nc3nc(C)cc(C(F)F)n3n2)c(C(=O)OC(C)C)c1C	-17%
O=[S+]1([O-])NC2(CCN(Cc3ccccc3C(F)(F)F)C2)CNc2ccccc21 (stereo not drawn)	-22%
CC(=O)Nc1ccccc1-c1nc2ccccc2n(C(C)C(=O)c2ccc(C)c(C)c2)c1=O (stereo not drawn)	-15%
Cc1ccccc1Cn1c(=O)n(CCCCC(=O)NCc2ccccc2Cl)c(=O)c2ccccc21	-15%
Clc1ccc([C@]23CNC[C@H]2C3)cc1Cl	11%
Nc1nc(-n2cc(C(=O)O)c(=O)c3cc(F)c(N4CC(O)C4)c(Cl)c32)c(F)cc1F	?
Clc1ccccc1CNc1ncnc2c1c(-c1ccccc1)cn2-c1ccccc1	-20%
COc1cccc(N2C(=O)NC(=NC3CCCC3)C23CCN([S+](=O)([O-])c2cccs2)C3)c1 (stereo not drawn)	-19%
C=Cc1ccc(O[C@@H]2O[C@H](CO[C@@H]3O[C@@H](C)[C@H](O)[C@@H](O)[C@H]3O)[C@@H](O)[C@H](O)[C@H]2O)cc1	22%[10 µM]
O=C1Nc2ccccc2C(=O)N2CC[C@H](NS(=O)(=O)c3cccs3)[C@@H]12	0%[39.2 µM]
CC(C)=CCC/C(C)=C/CO[C@@H]1O[C@H](CO)[C@@H](O)[C@H](O)[C@H]1O	9%
Cc1nc(NCc2ccc(-c3cccnc3)cc2)c2ccccc2n1	1%
O=C(Nc1ncc(Cc2ccc(C(F)(F)F)cc2)s1)c1ncc(-c2ccccc2)[nH]1	3%
O=S(=O)(O)c1ccc(Nc2ncnc3c2ncn3[C@@H]2O[C@H](CO)[C@@H](O)[C@H]2O)cc1	0%
Cc1cccc(N2CCN(C(=O)c3nn(C)c4c3CS(=O)(=O)c3ccccc3-4)CC2)c1C	-14%
O=C(NC1CCCCC1)O[C@@H]1CO[C@H]2[C@@H]1OC[C@@H]2n1nnnc1-c1ccccc1	-4%[39.2 µM]
CCCCN(C)C(=O)Cn1c(C2CC(=O)N(c3ccc(C)cc3)C2)nc2ccccc21 (stereo not drawn)	-21%

Arranged by SMILES length (low to high): part of the list above.
SMILES	nsP2pro primary
CCc1cc(N2CCOCC(O)(CN3CCCC3)C2)nc(N2CCCC2)n1 (stereo not drawn)	i
NC(=O)c1ccc2nc(-c3ccc(Oc4ccc(Cl)cc4)cc3)[nH]c2c1	61%[activator]
CCOC(=O)c1sc(NC(=O)c2nc3nc(C)cc(C(F)F)n3n2)c(C(=O)OC(C)C)c1C	-17%

The list continues.
SMILES	nsP2pro primary
Nc1nccc(N2CCC3(CCC(=O)N(CC4CCCO4)C3)CC2)n1 (stereo not drawn)	i
COc1ccc(-c2nc(S(=O)(=O)c3ccc(C)cc3)c(NCc3ccccc3)o2)cc1	4.5µM*
COCc1nc(C2CC(N)C2)cc(N2CCC(Cn3cccn3)CC2)n1 (stereo not drawn)	-3%
Cn1c2c(c(=O)n(C)c1=O)C(c1ccccc1[N+](=O)[O-])CC(=O)N2 (stereo not drawn)	?
C[C@]12CC[C@H](O)C[C@H]1CC[C@@H]1[C@@H]2[C@H](O)C[C@]2(C)[C@@H](c3ccc(=O)oc3)CC[C@]12O	16%
COc1cc(NC(=O)c2cnn(-c3cccc(F)c3)c2C2CCNCC2)cc(OC)c1OC	-80%
CC(=O)c1ccc(N2CCN(S(=O)(=O)c3ccc4c(c3)C(Cl)(Cl)C(=O)N4)CC2)cc1	i
COc1cccc2c1CCCC2CCCN1CCN(C2CCCCC2)CC1 (stereo not drawn)	-10%
C[C@@H]1O[C@@H](O[C@H]2[C@H](OC(=O)[C@]34CCC(C)(C)C[C@H]3C3=CCC5[C@@]6(C)C[C@H](O)[C@H](O[C@@H]7O[C@H](C(=O)O)[C@@H](O)[C@H](O)[C@H]7O)[C@@](C)(CO)C6[C@H](O)C[C@@]5(C)[C@]3(C)C[C@H]4O)O[C@@H](CO)[C@@H]2O)[C@H](O)[C@H](O)[C@H]1O[C@@H]1OC[C@@H](O)[C@H](O[C@H]2OC[C@](O)(CO)[C@H]2O)[C@H]1O (stereo partly drawn)	13%[5.1 µM]
COc1cc(C)c(C(=O)Oc2cc(C)c(C(=O)Oc3cc(C)c(C(=O)NC(C)C(=O)O)c(O)c3)c(O[C@@H]3O[C@H](CO)[C@@H](O)[C@H](O)[C@H]3OC(C)=O)c2)c(OC)c1 (stereo partly drawn)	-9%[10 µM]
O=C(CCc1ccsc1)N1CCC2(CCCN(Cc3cccnc3)C2=O)C1 (stereo not drawn)	-6%
Cc1nc2c3cccnc3nn2c(C)c1CCC(=O)NCc1ccccc1Cl	-11%
COc1ccc(CCC(=O)N2CCC(Cc3nc(-c4ccc(OC)cc4)no3)CC2)cc1	-2%
COc1ccccc1C(CC(=O)NCC(C)C)c1cn(C)c2ccccc12 (stereo not drawn)	-4%
CN(C)S(=O)(=O)c1ccc(C(=O)N(Cc2cccnc2)c2nc3c(F)cc(F)cc3s2)cc1	-20%
COc1ccccc1Cc1nc2ccccc2[nH]c1=O	-22%
N[C@@H](Cc1ccc(B(O)O)cc1)C(=O)O	-7%
COc1cc2[nH]c(C)c(CCN3CCN(c4ccccc4)CC3)c2cc1OC	-31%
CCOc1ccc(NC(=O)c2cnc(N3CCCCC3)c3ccccc23)cc1	2%
O=C1Cc2cc(S(=O)(=O)N3CCN(c4ccc(CO)cc4)CC3)ccc2N1	i
COC(=O)C1CCc2sc(NC(=O)Cc3ccccc3)c(C(=O)Nc3ccc(Cl)cc3)c21 (stereo not drawn)	i
CCc1ccc(-c2nc(CSCC(=O)N3CCN(c4ccc(F)cc4)CC3)c(C)o2)cc1	-20%
Cc1ccc2c(c1)c1c(c(=O)n(-c3ccccc3C)c(=O)n1CC(=O)c1ccc(Cl)cc1)n2C	-23%
CC[C@@H]1C[C@]1(NC(=O)[C@@H]1C[C@@H]2CN1C(=O)[C@H](C(C)(C)C)NC(=O)OCC(C)(C)CCCCc1cccc3c1CN(C3)C(=O)O2)C(=O)NS(=O)(=O)C1CC1	?
CC(C)CC(=O)Nc1ccnn1C1CCN(C(=O)c2scc3c2CCCC3)CC1	0%
(listing goes on)
SMILES	nsP2pro primary
O=C(c1ccco1)N1CCCCC1c1nc(C2CC2)n[nH]1 (stereo not drawn)	2%
O=S(=O)(Nc1ccc(Cl)cc1)c1cccc(S(=O)(=O)c2ccc(Cl)c(Cl)c2)c1	-3%
Cc1nn2c(N3CCC(O)C3)cc(-c3ccccc3)nc2c1C (stereo not drawn)	-2%
COc1ccc(C)cc1NC(=O)CSc1nc(=O)n(Cc2cccnc2)c2c1CCC2	-16%
CC(C)c1noc(-c2ccccc2OCC(=O)Nc2ccc([N+](=O)[O-])cc2)n1	-28%
COc1ccc(-c2nc3ccc(OC)cc3s2)cc1	1%
Fc1ccc(-c2c3cccc(C(F)(F)F)c3nn2Cc2ccc(F)cc2Cl)cc1	-13%
Cc1ccc(N2CC(c3noc(-c4ccc5ccccc5n4)n3)CC2=O)cc1 (stereo not drawn)	i
COc1ccc(NC(=O)c2cccn2-c2nnc(N3CCCCC3)s2)cc1	-28%
COc1cccc(NC(=S)N2CCN(c3cccc(C(F)(F)F)n3)CC2)n1	-14%
COc1ccc(C2Nc3ccccc3C(=O)N2Cc2ccco2)cc1COc1c(C)cccc1C (stereo not drawn)	i
Cc1cnc(-c2ccccc2C(C)C)nc1NCc1ccc(-c2cccnc2)cc1	3%
CCCCCCOc1ccc(-c2nc3ccc(Br)cc3c(=O)o2)cc1	-13%
Cc1cccc(OC(C)C(=O)Nc2nonc2-c2ccc(Br)cc2)c1C (stereo not drawn)	-30%
Cc1ccc(NC(=O)C2CCN(C(=O)c3cnn(-c4ccccc4)c3-n3cccc3)CC2)cc1C	-12%
CCC1(N2CCN(C(=O)COc3ccc(Cl)cc3C)CC2)CCN(C(=O)NC)C1 (stereo not drawn)	-8%
CCc1ccc(NCc2cc3cc4c(cc3n(CC(=O)Nc3ccc(Cl)cc3)c2=O)OCO4)cc1	?
C/C=C/C=C/C=C/C(=O)O[C@@H]1C=C(CO)C(O)(C(=O)OC)[C@@]2(C)CCCC(C)(C)C12 (stereo partly drawn)	-7%[10 µM]
O=C(CSc1oc(-c2ccc(F)cc2)nc1S(=O)(=O)c1ccc(Br)cc1)NC1CCCCC1	-30%
CC1(NC(=O)C2CC2)CN(c2ccc(OC(F)(F)F)cc2)C1	2%[39.2 µM]
CC(=O)c1ccc(C(=O)N(CCCN(C)C)c2nc3c(C)c(C)ccc3s2)cc1	-5%
O=C(c1ccc(C(F)(F)F)cc1)N1CCCC2(C1)C(=NC1CCCC1)NC(=O)N2c1cccnc1 (stereo not drawn)	-7%
CCCn1c(C)nc2c(NCCCCN(CC)CC)nc(C)nc21	0%
CCN1CCN(C(=O)C2CCCN(Cc3ccncc3)CCC(=O)NCC2)CC1 (stereo not drawn)	i
CCC[C@H](NC(=O)[C@@H]1[C@H]2CCC[C@H]2CN1C(=O)[C@@H](NC(=O)[C@@H](NC(=O)c1cnccn1)C1CCCCC1)C(C)(C)C)C(=O)C(=O)NC1CC1	3.9µM*!
